Source: PubChem (several laboratories)
ALR H2O2 inh: human ALR oxidase inhibition via reduced H2O2. P55789. purified ALR, DTT oxidation, H2O2 HRP-luminol luminescence. inhibition, % (no concentration beside the values). 3.8% of 290,000 active. AID 485317;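 active means mean and each replicate at 75% or more; inconclusive means only one of the two met; inactive means neither met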;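 further: stock transfer was 7.5 nL into about 7.5 µL; 0% = neutral wells and 100% = wells with inactivated enzyme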
Target sequence (P55789 whole entry, looked up): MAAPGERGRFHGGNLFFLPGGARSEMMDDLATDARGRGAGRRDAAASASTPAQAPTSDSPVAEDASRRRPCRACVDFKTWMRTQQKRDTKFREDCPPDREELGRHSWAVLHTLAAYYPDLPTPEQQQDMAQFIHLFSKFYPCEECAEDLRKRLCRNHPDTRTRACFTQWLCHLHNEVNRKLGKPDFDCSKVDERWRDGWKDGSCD
UCH37 inh: inhibitors of human deubiquitinating enzyme UCH37. inhibition, % (no concentration beside the values). Q9Y5K5. 0.33% of 330,000 active. purified proteasome/UCH37, Ub-AMC cleavage fluorescence. AID 588478;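 active means mean of two replicates above 20%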;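 further: 0% = compound-free wells with enzyme and 100% = wells lacking proteasome; stock transfer was 100 nL into about 20 µL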
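Material: Human UCH37 enzyme supplied as purified proteasome complex | Schedule: 30 min preincubation with enzyme, 25 min cleavage at room temperature | Detection: AMC fluorescence 355/460 nm | Measure: % inhibition of Ub-AMC cleavage fluorescence | Controls: Wells without proteasome as full block, compound-free enzyme plus substrate as uninhibited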
HNF4A DNA FP: change in binding of human HNF4 alpha to DNA | HNF4a-FITC DNA binding, fluorescence polarization, 1 h | activity change, % at 10 µM | 0.3% of 360,000 active | AID 1224865; in the data active means activity change above about 30%, passing the limit was not always enough;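 further: controls were the assay level and a saturating level of protein; the project sought stronger binding though the title names inhibitors; some compounds called inactive have numbers as strong as hits; positive values seem to mean higher polarization but the record does not say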
Target sequence (P41235 whole entry, looked up): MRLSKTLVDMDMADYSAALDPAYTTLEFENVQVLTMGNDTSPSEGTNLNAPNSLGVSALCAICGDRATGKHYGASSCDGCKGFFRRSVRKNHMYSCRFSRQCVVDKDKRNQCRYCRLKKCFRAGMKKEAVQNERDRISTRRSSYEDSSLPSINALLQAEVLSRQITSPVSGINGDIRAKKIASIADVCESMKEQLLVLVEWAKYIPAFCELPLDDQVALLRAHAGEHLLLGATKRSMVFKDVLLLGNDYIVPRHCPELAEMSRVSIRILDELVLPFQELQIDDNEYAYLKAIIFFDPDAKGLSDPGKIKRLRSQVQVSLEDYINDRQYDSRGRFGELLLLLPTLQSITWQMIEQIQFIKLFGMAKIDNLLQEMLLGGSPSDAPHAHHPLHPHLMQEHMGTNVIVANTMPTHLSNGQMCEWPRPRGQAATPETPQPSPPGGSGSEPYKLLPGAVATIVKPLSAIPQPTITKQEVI
B2AR ag: agonists of human beta-2 adrenergic receptor inducing internalization | P07550 | Am2.2-beta2AR cells, FAP receptor internalization, flow cytometry; reference of the scale not given here | response, % (no concentration beside the values) | 0.43% of 340,000 active | AID 504454;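 active means response above a set limit, near 3 SD of response in nonfluorescent compounds, cut at about 42% in these data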;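 further: stock transfer was 100 nL into about 11 µL; a reference agonist was the positive control; negative values mostly stem from fluorescent compounds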
Ecoli rRNA inh: selective bacterial rRNA inhibition in E. coli. E. coli WT GFP vs humanized-ribosome RFP mutants, fluorescence, 24 h; hits give low values; DMSO median 0, no signal -100. GFP signal change (wild-type ribosome), % (no concentration beside the values). 1.6% of 350,000 active;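 active means significant combined selectivity score with lowered wild-type GFP, culture density cut under 30%, mutant RFP and density less affected; inactive means any of these conditions unmet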; further: one replicate is shown; some compounds called inactive have numbers as strong as hits
Ecoli growth: inhibitors of Escherichia coli growth; OD600 absorbance (concentration not given with the values); OD600, 23 h; hits give low values; AID 1053175; 0.21% of 330,000 active;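 active means OD600 absorbance below the run mean of sample wells minus 3.6 SD, in any replicate, cut at about 0.56 in these data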;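 further: stock transfer was 300 nL into about 60 µL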
FGF22 binding: FGF22 (human) thermal shift binding. Q9HCT0. recombinant FGF22 thermal shift, SYPRO orange fluorescence; percent of sucrose octasulfate shift, DMSO zero. calls only at 9.99 µM. 1.5% of 340,000 active;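 active means melting point raised past a set limit in the mean and every replicate; inconclusive means no clear call; three in four hits are not shown here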
Target sequence (Q9HCT0 whole entry, looked up): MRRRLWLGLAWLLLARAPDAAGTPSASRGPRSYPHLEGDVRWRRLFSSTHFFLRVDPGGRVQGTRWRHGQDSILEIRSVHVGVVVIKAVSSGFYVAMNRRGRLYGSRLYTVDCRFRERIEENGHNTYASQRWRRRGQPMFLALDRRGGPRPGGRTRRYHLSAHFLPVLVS
Ecoli rRNA inh OD600: also measured in Ecoli rRNA inh; calls as there; OD600 change, %; measured here: OD600 growth;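 optical density of the mix in the first replicate; 0 = DMSO median and -100 = no signal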
Ecoli rRNA inh RFP: further read-out of Ecoli rRNA inh, marked with its call; RFP signal change, %; measured here: RFP humanized mutant strains;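 first replicate; 0 = DMSO median and -100 = no signal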
Active calls of the source: *; i = inactive; ? = inconclusive; · = not tested or not shown. An excerpt; the hit share may differ from the screen's.

The first ten entries, to show the layout:
cpd	Ecoli growth	UCH37 inh	Ecoli rRNA inh RFP	Ecoli rRNA inh	ALR H2O2 inh	B2AR ag	HNF4A DNA FP	FGF22 binding	Ecoli rRNA inh OD600	Molecule
1	0.665	5.8	3.8*	-22.9*	-10.2	3.6	1.0	i	-9.8*	CCn1cc(C(=O)OCC(=O)Nc2ccc(C(C)C)cc2)c(=O)c2ccc(C)nc21
2	0.71	7.7	-1.4	-5.2	7.9	14.3	1.1	i	0.8	CC(C)NC(=O)c1sc(=S)n2c1[nH]c(=O)c1ccc(C(=O)NCCc3ccc(Cl)cc3)cc12
3	0.665	5.9	-1.3	23.6	6.2	-0.8	5.0	i	8.9	O=C(NS(=O)(=O)c1ccc(NC(=O)C2CCCO2)cc1)c1ccccc1 (stereo unspecified)
4	0.74	3.8	8.7	2.6	-14.5	-0.2	0.2	i	7.3	COc1ccc(-n2nc([N+](=O)[O-])c(=NCCc3cccc(C)c3)n2O)cc1
5	·	·	6.7	-3.2	·	·	6.0	i	-3.9	CC(=O)Nc1ccc(C(=O)N2CCCCC2c2cc(C(=O)Nc3cccc(C#N)c3)no2)cc1 (stereo unspecified)
6	·	·	·	·	-0.8	4.0	-3.7	·	·	CC1/C(=N/O)CC(c2ccccc2)NC1c1ccccc1 (stereo unspecified)
7	0.681	1.0	-4.4	-1.2	·	16.1	-3.9	i	0.3	O=C(NCCC1CCCCN1S(=O)(=O)c1ccc(F)cc1)C(=O)NC1CCCC1 (stereo unspecified)
8	0.674	-0.8	·	·	0.1	-3.1	2.1	·	·	O=C1c2ccccc2C(=O)N1CCc1nc(-c2cccnc2)no1
9	0.642	5.9	-2.4	10.5	·	0.3	-0.4	i	6.4	O=C(O)c1cc(-c2cccnc2)nc2ccccc12
10	0.627	0.0	1.2	5.3	·	3.2	-0.2	·	3.9	COc1ccccc1NS(=O)(=O)c1cccc(NC(=O)C(C)NC(=O)c2ccco2)c1 (stereo unspecified)

This part in full (from the top)
cpd	Ecoli growth	UCH37 inh	Ecoli rRNA inh RFP	Ecoli rRNA inh	ALR H2O2 inh	B2AR ag	HNF4A DNA FP	FGF22 binding	Ecoli rRNA inh OD600	Molecule
1	0.665	5.8	3.8*	-22.9*	-10.2	3.6	1.0	i	-9.8*	CCn1cc(C(=O)OCC(=O)Nc2ccc(C(C)C)cc2)c(=O)c2ccc(C)nc21
2	0.71	7.7	-1.4	-5.2	7.9	14.3	1.1	i	0.8	CC(C)NC(=O)c1sc(=S)n2c1[nH]c(=O)c1ccc(C(=O)NCCc3ccc(Cl)cc3)cc12
3	0.665	5.9	-1.3	23.6	6.2	-0.8	5.0	i	8.9	O=C(NS(=O)(=O)c1ccc(NC(=O)C2CCCO2)cc1)c1ccccc1 (stereo unspecified)
4	0.74	3.8	8.7	2.6	-14.5	-0.2	0.2	i	7.3	COc1ccc(-n2nc([N+](=O)[O-])c(=NCCc3cccc(C)c3)n2O)cc1
5	·	·	6.7	-3.2	·	·	6.0	i	-3.9	CC(=O)Nc1ccc(C(=O)N2CCCCC2c2cc(C(=O)Nc3cccc(C#N)c3)no2)cc1 (stereo unspecified)
6	·	·	·	·	-0.8	4.0	-3.7	·	·	CC1/C(=N/O)CC(c2ccccc2)NC1c1ccccc1 (stereo unspecified)
7	0.681	1.0	-4.4	-1.2	·	16.1	-3.9	i	0.3	O=C(NCCC1CCCCN1S(=O)(=O)c1ccc(F)cc1)C(=O)NC1CCCC1 (stereo unspecified)
8	0.674	-0.8	·	·	0.1	-3.1	2.1	·	·	O=C1c2ccccc2C(=O)N1CCc1nc(-c2cccnc2)no1
9	0.642	5.9	-2.4	10.5	·	0.3	-0.4	i	6.4	O=C(O)c1cc(-c2cccnc2)nc2ccccc12
10	0.627	0.0	1.2	5.3	·	3.2	-0.2	·	3.9	COc1ccccc1NS(=O)(=O)c1cccc(NC(=O)C(C)NC(=O)c2ccco2)c1 (stereo unspecified)
11	0.613	0.8	·	·	·	0.2	2.9	·	·	COC(=O)c1ccc(N2CCN(C)CC2)c(NC(=O)COc2ccc(OC)cc2)c1
12	0.707	2.0	-9.4	-47.5	·	-0.5	6.8	i	-71.8	COc1cc2ncnc(NCc3ccc(Cl)cc3)c2cc1OC
13	0.671	0.4	-2.8	8.4	2.4	-8.2	-1.2	i	-7.9	CCCCN(CC)CCNC(=O)CNC(=O)Cn1ccc2ccccc2c1=O
14	0.641	1.0	-5.3	-14.5	1.5	7.3	1.3	i	-41.4	CN(C(=O)c1ccc(-c2nn(C)c(=O)c3ccccc23)cc1)C1CCCCC1
15	0.731	1.0	·	·	-7.6	5.9	0.2	·	·	COc1ccc(NC2=NC(=S)N(c3ccc(C)cc3)C23CCCCC3)cc1
16	0.701	5.0	-2.0	-2.9	6.1	1.2	0.5	i	-14.9	Cc1ccc(N(CC(=O)NC2CCCC2)C(=O)c2nsc(Cl)c2Cl)cc1
17	0.725	4.6	3.4	9.3	·	-8.3	2.8	·	11.9	c1ccc(NN=C2c3ccccc3-c3ccccc32)cc1
18	0.719	-104.1	·	·	6.4	-14.3	-0.3	·	·	CCOC(=O)c1cc(C#N)c(N2CCCCC2)nc1-c1ccccc1
19	0.679	12.7	0.8	11.7	9.8	-3.5	-1.8	i	5.6	COCCOc1cc2ncnc(N3CCC(C(=O)O)CC3)c2cc1OCCOC
20	0.702	4.8	·	·	-4.2	-2.4	0.4	·	·	COc1ccccc1OCCn1c(C(C)O)nc2ccccc21 (stereo unspecified)
21	0.753	-285.9	2.4	7.1	-5.3	18.6	2.5	i	-0.9	COc1ccc(-c2oc3ccc(N4CCOCC4)cc3c2C#CC2(O)CCCCC2)cc1
22	0.69	10.8	0.0	-2.1	9.7	-8.8	-0.5	i	-3.2	CC(C)Oc1ccc(/C=C(\C#N)C(=O)NC2CC2)cc1
23	0.689	3.8	0.1	14.7	·	-3.9	-2.5	i	4.8	CN(C(=O)c1cccc(NC(=O)Cc2ccc(NC(=O)C3CCN(C(=O)c4ccccc4)CC3)cc2)c1)C1CC1
24	·	·	-2.7	2.7	-11.0	6.4	1.7	i	7.3	C/C(=N\O)C(=O)Nc1ccccc1
25	·	·	1.1	13.8	·	·	0.6	i	16.1	CCNC(=O)C1(C)CCN(C(=O)c2c(-c3ccccc3)noc2C)C1 (stereo unspecified)
26	0.715	0.3	-12.9	-22.5	-6.0	-1.3	2.2	i	-19.1	Cc1ccc(NC(=S)NCc2ccccc2Cl)c(C)c1
27	0.724	1.3	·	·	-15.3	0.1	-3.2	·	·	CCCOC(=O)CCn1c(=S)oc2ccccc21
28	0.656	7.3	·	·	-6.2	20.8	6.9	·	·	CCOC(=O)c1c(C)n(-c2ccc(C)cc2)c2ccc(OCC(O)CNCC3CCCO3)cc12 (stereo unspecified)
29	0.706	3.4	·	·	-12.9	11.3	1.7	·	·	O=C1CN(C(=O)c2ccco2)C(c2ccccc2)c2cc(Cl)ccc2N1 (stereo unspecified)
30	0.77	1.9	-1.5	-0.5	·	-7.5	4.8	i	0.8	CCCn1c(CN2CCN(C(=O)c3ccco3)CC2)nc2c1c(=O)n(C)c(=O)n2C
31	0.773	5.3	·	·	-7.7	-7.3	0.2	·	·	COC(=O)c1c(NC(=O)CN2CCN(C(=O)c3ccco3)CC2)c2c(C)cccc2n1C
32	0.691	4.0	-11.4	4.4	?	-12.7	-2.9	i	-3.1	CCN(CC(=O)Nc1sc2c(c1C#N)CCC(C)C2)CC(=O)NC1CCS(=O)(=O)C1 (stereo unspecified)
33	0.655	3.3	0.8	-6.8	-12.2	-2.1	2.8	i	-11.3	COCCc1nc2ccc(C(=O)NCc3cccc(-n4cccn4)c3)cc2o1
34	0.688	1.6	-2.7*	-30.1*	-8.4	4.0	-1.7	i	-21.2*	COc1ccccc1C(=O)Nc1cccc2cccnc12
35	0.716	2.5	0.8	-0.7	-5.7	8.7	-5.9	i	6.8	CC(C)(C)c1ccc(C(=O)NCC(=O)OCC(=O)N2CCN(S(=O)(=O)c3ccc(Cl)cc3)CC2)cc1
36	0.714	3.7	·	·	-0.2	-1.5	0.3	·	·	O=c1cc(CSc2nnc(COc3ccc(Cl)cc3)o2)c2ccccc2[nH]1
37	0.691	5.7	-1.6	11.5	·	0.0	-0.7	i	16.3	O=C(O)CSc1nnc(COc2ccc([N+](=O)[O-])cc2)n1-c1ccccc1
38	·	2.4	·	·	4.4	-1.3	2.9	i	·	CC(C)(C)[C@H]1C=C(C(=O)O)O[C@@H](OCc2ccc(CO)cc2)C1
39	0.692	7.3	1.4	7.9	10.4	1.6	2.9	i	2.8	CCOC(=O)C1=C(C)Nc2ccccc2S1
40	0.66	2.0	-1.9	-2.3	-12.8	-12.4	1.3	i	-13.2	O=C1Nc2ccccc2N=C(c2ccccc2)C1Br (stereo unspecified)
41	0.674	2.4	0.4	4.3	26.1	-7.8	4.4	i	14.8	O=C(CSc1nnc2n1CCCN2)c1ccccc1
42	0.699	-2.8	-3.3	0.2	1.3	-3.6	4.9	i	14.0	CC(C)CCC1(C)NC(=O)N(CC(=O)NCC(=O)Nc2ccc(F)c(F)c2F)C1=O (stereo unspecified)
43	0.667	-1.0	-0.6	9.2	2.4	-1.0	-1.1	i	8.7	CC(Sc1ccc(S(=O)(=O)N2CCN(C)CC2)cn1)C(=O)NC1CCCCC1 (stereo unspecified)
44	·	·	1.8	-2.8	·	9.0	5.1	i	-4.5	COc1ccc(S(=O)(=O)Nc2ccc3c(c2)C(=O)N([C@H](C)CO)C[C@H](C)[C@@H](CN(C)S(=O)(=O)c2ccc(OC)cc2)O3)cc1
45	0.7	0.9	0.3	6.7	5.5	4.2	1.4	i	-1.4	Fc1cccc(Nc2nc(N3CCOCC3)nc(N3CCOCC3)n2)c1
46	0.758	3.2	-3.0	-0.8	4.4	2.6	1.8	i	-3.2	COc1cccc(CNC(=O)CCC(=O)N2CC(C)Oc3ccccc32)c1OC (stereo unspecified)
47	0.712	5.9	-1.1	2.0	5.5	9.2	-3.9	i	6.0	COC(=O)c1ccc(C(C2C(=O)CC(C)(C)CC2=O)C2C(=O)CC(C)(C)CC2=O)cc1
48	0.717	6.9	-4.2	-17.6	?	-9.0	-3.7	i	-28.1	CCn1c(SCC(=O)Nc2cccc(C)c2)nc2c(c1=O)SC(C)C2 (stereo unspecified)

Entries of single compounds as entered above. Screens in order: Ecoli growth | UCH37 inh | Ecoli rRNA inh RFP | Ecoli rRNA inh | ALR H2O2 inh | B2AR ag | HNF4A DNA FP | FGF22 binding | Ecoli rRNA inh OD600
`CC(C)CCC1(C)NC(=O)N(CC(=O)NCC(=O)Nc2ccc(F)c(F)c2F)C1=O` (stereo unspecified) in the list: 0.699 | -2.8 | -3.3 | 0.2 | 1.3 | -3.6 | 4.9 | i | 14.0
`COC(=O)c1ccc(C(C2C(=O)CC(C)(C)CC2=O)C2C(=O)CC(C)(C)CC2=O)cc1` in the list: 0.712 | 5.9 | -1.1 | 2.0 | 5.5 | 9.2 | -3.9 | i | 6.0
